Assay outcomes as filed in PubChem.
rRNA inh HTS – inhibits bacterial ribosomal RNA function over humanized ribosomes; E. coli WT GFP vs humanized-ribosome RFP mutants, fluorescence, 24 h; stronger effect = lower value; DMSO median 0, no signal -100; GFP signal change (wild-type ribosome), % (no concentration beside the values); hit rate 1.6% among 350,000; AID 720706;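 active = significant combined selectivity score with lowered wild-type GFP, culture density cut under 30%, mutant RFP and density less affected; inactive = any of these conditions unmet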; also: one replicate is shown; some compounds called inactive have numbers as strong as hits
rRNA inh HTS OD600 – also measured in rRNA inh HTS; calls as there; OD600 change, %; measured here: OD600 growth;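 optical density of the mix in the first replicate; 0 = DMSO median and -100 = no signal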
rRNA inh HTS RFP – also measured in rRNA inh HTS; calls as there; RFP signal change, %; measured here: RFP humanized mutant strains;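 first replicate; 0 = DMSO median and -100 = no signal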
The depositor's hits bear a star; & = joins results of further samples. Not all compounds are listed; the hit share may differ from the screen's.

rRNA inh HTS	rRNA inh HTS OD600	rRNA inh HTS RFP	compound
-1.4	-0.1	-0.5	CN1c2ccc(-c3cccc(F)c3)cc2[C@@H]2[C@@H](CCN2C(=O)Cc2cccnc2)[C@H]1CO
-3.1	-7.2	1.3	O=C(Cc1ccccn1)N1CC(=O)N2[C@H](CO)[C@@H](c3ccc(C#CCC4CCCC4)cc3)[C@H]2C1
-0.5	-2.4	0.3	O=C1C[C@@H](c2ccccc2)C(=O)N[C@H](c2ccc3c(c2)OCO3)C/C=C\C[C@@H](c2ccc(F)cc2)N1
1.8	3.9	5.1	O=C(N[C@H]1CC[C@@H](CC(=O)N2CCOCC2)O[C@@H]1CO)c1ccc2c(c1)OCO2
-2.3	-2.4	-0.5	C[C@@H]1CN([C@H](C)CO)C(=O)c2cc(NS(=O)(=O)c3cccs3)ccc2O[C@@H](C)CCCCO[C@H]1CN(C)S(=O)(=O)c1ccc(Cl)cc1
7.4	-16.3	17.0	CCC(=O)N1C[C@@H](C)[C@H](OC)CN(C)C(=O)c2ccc(NC(=O)Nc3ccc(Cl)cc3)cc2OC[C@H]1C
3.1	-1.0	-0.2	Cc1ccc(S(=O)(=O)Nc2ccc3c(c2)C(=O)N([C@@H](C)CO)C[C@H](C)[C@H](CN(C)C(=O)c2ccncc2)OCCCC[C@@H](C)O3)cc1
-0.8	-4.3	-0.1	C[C@H]1CN(C)C(=O)c2ccccc2O[C@@H]1CN(C)S(C)(=O)=O
2.3	0.6	-0.6	CCCN1C[C@@H](C)[C@@H](OC)CN(C)C(=O)c2ccc(NC(=O)c3ccccc3)cc2OC[C@@H]1C
0.9	4.3	-2.1	CCS(=O)(=O)N1CCCCN2[C@H](CO)[C@H](c3ccc(-c4ccc(C(=O)N(C)C)cc4)cc3)[C@@H]2C1
0.6	0.1	1.5	CC=Cc1ccc2n(c1=O)C[C@H]1[C@H](CO)[C@@H](C(=O)NCC(F)(F)F)N(CCc3ccccc3)[C@@H]21 (mixture of isomers)
2.6	9.3	-0.3	CNC[C@@H]1Oc2ccc(NC(=O)Cn3cnnn3)cc2CC(=O)N([C@@H](C)CO)C[C@H]1C
-0.6	-2.0	0.3	CCCNC(=O)C[C@H]1C[C@@H]2c3cc(NS(=O)(=O)c4ccccc4)ccc3O[C@@H]2[C@@H](CO)O1
0.7	9.6	0.6	Cc1noc(C)c1NC(=O)N(C)C[C@@H]1OCCCC[C@H](C)Oc2ccc(NC(=O)CCC(F)(F)F)cc2C(=O)N([C@H](C)CO)C[C@@H]1C
0.0	-0.7	-1.1	Cc1ccc(S(=O)(=O)Nc2ccc3c(c2)C(=O)N([C@@H](C)CO)C[C@H](C)[C@H](CN(C)Cc2ccc(C(=O)O)cc2)OCCCC[C@H](C)O3)cc1
2.7	4.9	-3.0	Cc1noc(C)c1NC(=O)Nc1ccc2c(c1)C(=O)N([C@H](C)CO)C[C@H](C)[C@@H](CN(C)S(=O)(=O)c1ccc(Cl)cc1)O2
-0.6	-2.2	-1.1	CN1C(=O)c2cc(NC(=O)Nc3ccccc3)ccc2OC[C@H]2O[C@H](CC(=O)O)CC[C@H]21
-2.5	-34.1	12.8	CN1c2ccc(-c3cccc(F)c3)cc2[C@H]2[C@H](CCN2C(=O)c2ccccc2F)[C@H]1CO
0.7	5.9	2.5	Cc1ccc(S(=O)(=O)N(C)C[C@@H]2Oc3ccc(NC(=O)CCCN(C)C)cc3C(=O)N([C@@H](C)CO)C[C@@H]2C)cc1
0.3	-5.6	0.5	CC(C)NC(=O)N(C)C[C@H]1Oc2ccc(NC(=O)C3CC3)cc2CC(=O)N([C@@H](C)CO)C[C@H]1C

Entries above that have a CF3 group, in the order listed:
rRNA inh HTS	rRNA inh HTS OD600	rRNA inh HTS RFP	compound
0.6	0.1	1.5	CC=Cc1ccc2n(c1=O)C[C@H]1[C@H](CO)[C@@H](C(=O)NCC(F)(F)F)N(CCc3ccccc3)[C@@H]21 (mixture of isomers)
0.7	9.6	0.6	Cc1noc(C)c1NC(=O)N(C)C[C@@H]1OCCCC[C@H](C)Oc2ccc(NC(=O)CCC(F)(F)F)cc2C(=O)N([C@H](C)CO)C[C@@H]1C

Back to the main list, repeating the 3 entries before the break.
rRNA inh HTS	rRNA inh HTS OD600	rRNA inh HTS RFP	compound
-2.5	-34.1	12.8	CN1c2ccc(-c3cccc(F)c3)cc2[C@H]2[C@H](CCN2C(=O)c2ccccc2F)[C@H]1CO
0.7	5.9	2.5	Cc1ccc(S(=O)(=O)N(C)C[C@@H]2Oc3ccc(NC(=O)CCCN(C)C)cc3C(=O)N([C@@H](C)CO)C[C@@H]2C)cc1
0.3	-5.6	0.5	CC(C)NC(=O)N(C)C[C@H]1Oc2ccc(NC(=O)C3CC3)cc2CC(=O)N([C@@H](C)CO)C[C@H]1C
2.2	3.6	-1.7	O=C(O)C[C@H]1C[C@H]2c3cc(NC(=O)NC4CCCCC4)ccc3O[C@H]2[C@@H](CO)O1
2.0	3.6	-8.9	Cc1ccc(CNC(=O)CC[C@H]2O[C@@H](n3cc(C)c(=O)[nH]c3=O)C[C@@H]2O)o1
9.6	14.1	14.1	CSCc1cc(C(=O)NC2CC2)c(N)s1
0.3	-6.7	-2.3	C[C@H]1CCCCO[C@H](CN(C)Cc2ccc3c(c2)OCO3)[C@@H](C)CN([C@@H](C)CO)C(=O)c2cc(NS(=O)(=O)c3ccccc3)ccc2O1
-59.2	-78.2	-13.2	C[C@@H]1CN([C@H](C)CO)C(=O)Cc2cc(NS(=O)(=O)c3ccc(F)cc3)ccc2O[C@H]1CN(C)CC1CCCCC1
3.9	9.5	0.8	CN(C)CC(=O)N[C@@H]1CC[C@H](CC(=O)NCCN2CCCCC2)O[C@H]1CO
8.3	10.3	1.9	COc1ccc(S(=O)(=O)N(C)C[C@@H]2OCCCC[C@H](C)Oc3ccc(NC(=O)Nc4ccc5c(c4)OCO5)cc3C(=O)N([C@H](C)CO)C[C@H]2C)cc1
3.5	-10.0	-3.0	C[C@@H]1CN([C@@H](C)CO)C(=O)c2cc(NS(=O)(=O)c3ccc(F)cc3)ccc2O[C@@H]1CN(C)Cc1ccc(C(=O)O)cc1
3.6	-0.8	1.0	COc1ccc(CNC(=O)C2(C)Cc3c(-c4ccc(C(N)=O)cc4)ccnc3O2)cc1OC (stereo unspecified)
11.4	20.9	-1.9	Cc1cc(C(=O)N2CCC2(C)C(=O)NS(=O)(=O)c2cccc(OC(F)F)c2)nn1C (stereo unspecified)
-6.8	-12.4	-1.0	O=C(Nc1ccccc1)N1C[C@H]2[C@@H](c3ccccc31)[C@@H](CO)N2Cc1ccccc1Cl
-1.3	-2.3	-1.9	C[C@H]1CN([C@@H](C)CO)C(=O)Cc2cc(NC(=O)CCC(F)(F)F)ccc2O[C@H]1CN(C)Cc1ccc(C(=O)Nc2ccccc2N)cc1
-3.4	-23.6	-2.3	Cc1ccc(Cc2c(-c3cccc(Br)c3)nc3ccc(Cl)cn23)cc1
-0.2	-5.1	-1.1	C[C@@H]1CN([C@H](C)CO)C(=O)c2cccc(NC(=O)Nc3ccccc3)c2O[C@H]1CN(C)S(=O)(=O)c1ccccc1
-1.4	-7.1	1.9	COc1ccc(S(=O)(=O)Nc2ccc3c(c2)C(=O)N([C@@H](C)CO)C[C@@H](C)[C@@H](CN(C)C(=O)NC2CCCCC2)O3)cc1
-0.5	0.9	-4.1	CC(=O)N(C)C[C@H]1Oc2ncc(C#Cc3cccc(F)c3)cc2C(=O)N([C@H](C)CO)C[C@H]1C
-1.8	-1.9	33.9	COc1cccc(CNC(=O)c2cc3c(c(-c4cccc(-c5ccncc5)c4)n2)[C@@H](CCO)N([S@](=O)C(C)(C)C)C3)c1
-2.4	-12.7	1.4	C[C@@H]1CCCCO[C@H](CN(C)Cc2ccncc2)[C@H](C)CN([C@H](C)CO)C(=O)c2cc(NC(=O)Nc3ccccc3)ccc2O1
11.3	16.8	2.9	Cc1ccc(C(=O)OCC(=O)NCc2ccccc2)s1
3.3	4.7	-0.8	O=C(N[C@@H]1C=C[C@@H](CC(=O)N2CCOCC2)O[C@H]1CO)c1cccc(F)c1

Going on with the list.
rRNA inh HTS	rRNA inh HTS OD600	rRNA inh HTS RFP	compound
2.7	13.2	0.5	C[C@@H]1CCCCO[C@H](CN(C)Cc2ccc(C(F)(F)F)cc2)[C@H](C)CN([C@H](C)CO)C(=O)c2cc(NC(=O)Nc3ccccc3)ccc2O1
-0.6	11.4	7.5	COc1cccc(NC(=O)N2CC(=O)N3[C@@H](CO)[C@H](c4ccc(C#CCC5CCCC5)cc4)[C@@H]3C2)c1
-2.1	-10.5	5.7	C[C@@H]1CN([C@H](C)CO)C(=O)c2ccccc2-c2ccccc2CO[C@H]1CN(C)S(=O)(=O)c1ccc(Cl)cc1
-2.5	-1.0	2.3	CO[C@@H]1CN(C)C(=O)c2ccc(NC(=O)Nc3ccccc3)cc2OC[C@@H](C)N(CC2CC2)C[C@@H]1C
6.1	7.2	1.1	COCC#Cc1cnc2c(c1)C(=O)N([C@@H](C)CO)C[C@H](C)[C@H](CN(C)C(=O)c1cnccn1)O2
-2.0	-2.5	-4.2	C/C=C/c1ccc2c(c1)O[C@H](CN(C)C(=O)COC)[C@H](C)CN([C@H](C)CO)S2(=O)=O
-6.2	-25.0	19.9	C[C@@H]1CN([C@@H](C)CO)C(=O)Cc2cc(NC(=O)Nc3ccc(C(F)(F)F)cc3)ccc2O[C@H]1CN(C)Cc1ccc2c(c1)OCO2
-0.9	7.2	-0.3	C[C@H](NC(=O)C[C@@H]1CC[C@H](NC(=O)Cc2ccccn2)[C@@H](CO)O1)c1ccccc1
4.0	4.9	-3.1	COc1ccc2c3c(n(C)c2c1)[C@@H](CO)N(C(C)=O)CC31CCN(Cc2ccccc2OC)CC1
4.6&11.0	6.0&4.6	0.5&2.4	CCC(=O)N[C@@H]1C=C[C@@H](CC(=O)NCc2ccccc2F)O[C@@H]1CO
-3.8	-3.5	1.2	CCC(=O)N(C)C[C@H]1[C@H](c2ccc(C3=CCCCC3)cc2)[C@@H](CO)N1C(C)=O
1.7	5.5	-5.1	C[C@@H]1CN([C@@H](C)CO)C(=O)c2c(c3ccccc3n2C)-c2ccccc2CO[C@H]1CN(C)S(=O)(=O)c1ccc(Cl)cc1
-7.6	-10.3	2.9	COc1ccc(S(=O)(=O)N2CCCCC2c2cc(C(=O)NCc3ccc(F)cc3)no2)cc1 (stereo unspecified)
-2.6	-3.9	-1.1	COC(=O)C[C@@H]1CC[C@@H]2[C@@H](COc3ccc(NS(=O)(=O)c4ccccc4F)cc3C(=O)N2C)O1
6.8	0.7	3.0	C[C@@H]1CCCCO[C@H](CN(C)CC2CCCCC2)[C@@H](C)CN([C@H](C)CO)C(=O)c2cc(NC(=O)Nc3cccc4ccccc34)ccc2O1
-10.0	-25.2	5.2	CCCC#Cc1ccc2c(c1)O[C@H](CN(C)C(=O)c1ccccc1)[C@H](C)CN([C@H](C)CO)S2(=O)=O
-1.3	-1.7	4.8	COc1ccc(NC(=O)N(C)C[C@H]2OCCCC[C@H](C)Oc3ccc(NC(=O)c4ccccc4)cc3C(=O)N([C@H](C)CO)C[C@H]2C)cc1
-54.4	-68.2	-9.6	O=C(c1ccc2c(c1)OCO2)N1CCCCN2[C@H](C1)[C@@H](c1ccc(-c3ccccc3)cc1)[C@@H]2CO
-5.4	-9.5	-1.5	C[C@@H]1CN(S(=O)(=O)C(C)(C)C)[C@@H](CCO)/C1=C\CCO
-0.4	-1.4	-0.5	O=C(Nc1ccc2c(c1)OCO2)N[C@@H]1CC[C@@H](CCNC(=O)C2CCC2)O[C@H]1CO

Later entries
rRNA inh HTS	rRNA inh HTS OD600	rRNA inh HTS RFP	compound
1.8	3.9	2.2	COc1ccc(NC(=O)Nc2ccc3c(c2)C(=O)N([C@@H](C)CO)C[C@@H](C)[C@H](CN(C)S(C)(=O)=O)O3)cc1
1.3	1.6	1.5	CC(=O)Nc1cccc2c1O[C@@H](CN(C)S(C)(=O)=O)[C@@H](C)CN(C)C2=O
-6.0	-17.4	3.0	CCC(=O)N1C[C@@H](C)[C@@H](OC)CN(C)C(=O)c2cc(NC(=O)Nc3ccc(Cl)cc3)ccc2OC[C@@H]1C
-3.3	-3.0	-3.4	CCc1nc2c(OCc3c(C)noc3C)cccn2c1N(C=O)Cc1ccccc1
2.5	4.2	-2.4	COc1ccc2c3c(n(C)c2c1)[C@H](CO)N(C(=O)C1CCC1)CC31CN(C)C1
0.9	-6.1	1.6	CCCNC(=O)C[C@H]1C[C@@H]2c3cc(NC(=O)Nc4ccccc4)ccc3O[C@@H]2[C@H](CO)O1
-1.6	5.2	-3.6	C[C@@H]1CN([C@@H](C)CO)C(=O)c2cc(NC(=O)Cn3cnnn3)ccc2O[C@H]1CN(C)S(=O)(=O)c1ccc(Cl)cc1
-14.8	-26.6	7.2	N#Cc1cccc(-c2ccc3c(c2)[C@H]2[C@H](CCN2S(=O)(=O)c2ccccc2)[C@@H](CO)N3)c1
-3.3	-8.5	0.3	C[C@H](CO)N1C[C@H](C)[C@@H](CN(C)Cc2cccnc2)Oc2cc(C#C[C@@H](C)O)ccc2S1(=O)=O
-2.3	-5.1	-0.9	COc1ccc(NC(=O)N(C)C[C@@H]2Oc3cc(-c4ccc(C)cc4)ccc3S(=O)(=O)N([C@H](C)CO)C[C@@H]2C)cc1
-21.4	-64.7	3.0	O=C(c1cccnc1)N1CC(=O)N2[C@@H](CO)[C@H](c3ccc(C#CCC4CCCC4)cc3)[C@@H]2C1
